Screening results as filed in PubChem.
mut p53 SMM = binders of human mutant p53, primary screen, biochemical, small molecule microarray, anti-GST fluorescence; small molecule microarray binding; mutant tumor protein p53 (GST-tagged), Homo sapiens; 0.4% of 17,000 active; calls only;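 active = compounds whose four printed spots each glow above background more than chance allows, each with a p-value under 7%; compounds were printed on slides so no solution concentration is given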;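 note: about 2 pmol printed per array spot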
STAT3 binder = STAT3 binders, primary screen, biochemical, small molecule microarray, single point, set 2 | His-STAT3 binding, anti-His fluorescence | calls only | 0.2% of 17,000 active | AID 624138, 2012;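 active = compounds whose four printed spots each show fluorescence over background unusually high for their array block, chance value under 7%; compounds were printed on slides so no solution concentration is given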;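 note: about 2 pmol printed per array spot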
ID4 binder = binders of human ID4 protein, primary screen, biochemical, small molecule microarray, single point | 1.2% of 31,000 active | Flag-ID4 binding, fluorescence F/B | calls only;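 active = spot signal over background at p below 0.07 in all four prints; compounds were printed on slides so no solution concentration is given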;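 note: a binder raises fluorescence above local background on the spot; about 2 pmol printed per array spot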
Myc binder = binders of human c-Myc, primary screen, biochemical, small molecule microarray, anti-His fluorescence. calls only. His-c-Myc binding. Myc proto-oncogene protein (Homo sapiens), P01106. 1.5% of 17,000 active;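 active = spot fluorescence over background with P-value below 7% in all four replicate spots, showing protein binding; compounds were printed on slides so no solution concentration is given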;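 note: score is binary with 100 for all four spots passing and 0 otherwise; about 2 pmol printed per array spot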
Target sequence (P01106 whole entry, looked up): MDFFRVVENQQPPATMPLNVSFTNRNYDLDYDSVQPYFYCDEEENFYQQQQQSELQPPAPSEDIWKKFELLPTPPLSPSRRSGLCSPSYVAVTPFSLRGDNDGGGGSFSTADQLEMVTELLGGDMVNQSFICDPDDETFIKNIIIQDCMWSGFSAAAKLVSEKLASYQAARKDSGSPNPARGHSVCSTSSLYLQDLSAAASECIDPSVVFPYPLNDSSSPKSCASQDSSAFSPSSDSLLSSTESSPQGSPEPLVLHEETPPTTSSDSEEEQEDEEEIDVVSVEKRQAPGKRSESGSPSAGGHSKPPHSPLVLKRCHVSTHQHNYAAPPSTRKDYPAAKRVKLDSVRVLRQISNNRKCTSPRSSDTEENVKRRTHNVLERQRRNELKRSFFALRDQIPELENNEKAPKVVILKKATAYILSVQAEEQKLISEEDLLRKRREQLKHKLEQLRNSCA
Calls only; i = inactive; . = no result given. An excerpt; rates above refer to the full screens.

SMILES	mut p53 SMM	STAT3 binder	ID4 binder	Myc binder
CN1CCN(CCCN2c3ccccc3Sc3ccc(S(=O)(=O)N(C)C)cc32)CC1	i	i	i	i
C[C@@H]1O[C@@H](OC[C@H]2O[C@@H](Oc3cc(O)c4c(c3)OC(c3ccc(O)cc3)CC4=O)[C@H](O)[C@@H](O)[C@@H]2O)[C@H](O)[C@H](O)[C@H]1O (stereo partly drawn)	i	i	.	i
COc1cc(-c2oc3cc(O)cc(O)c3c(=O)c2OC2OC(CO[C@@H]3O[C@@H](C)[C@H](O)[C@@H](O)[C@H]3O)C(O)C(O)C2O)ccc1O (stereo partly drawn)	i	i	i	i
CN=C(NC#N)Nc1ccc(C2=NNC(=O)CC2C)cc1 (stereo not drawn)	i	i	i	i
COc1ccc([C@@H]2CNC(=O)C2)cc1OC1CCCC1	i	i	i	i
COc1cc(-c2oc3cc(O)cc(O)c3c(=O)c2O[C@@H]2O[C@H](CO[C@@H]3O[C@@H](C)[C@H](O)[C@@H](O)[C@H]3O)[C@H](O)[C@H](O)[C@H]2O)ccc1O	i	i	i	i
CC(C)(C(=O)c1cccnc1)c1cccnc1	i	i	i	i
COC(=O)C1=CO[C@@H](O[C@@H]2O[C@H](CO)[C@@H](O)[C@H](O)[C@H]2O)C2C1CC(O)C2C (stereo partly drawn)	i	i	i	i
CCN(CC)CCOC(=O)C(c1ccccc1)c1ccccc1	i	i	.	i
CCc1cc(-c2n[nH]c(C)c2-c2ccc3c(c2)OCCO3)c(O)cc1O	i	i	i	i
CCC(Cc1c(I)cc(I)c(N)c1I)C(=O)O (stereo not drawn)	i	i	i	i
CC1(C)Oc2ccc(C#N)cc2[C@@H](N2CCCC2=O)[C@@H]1O	i	i	i	i

A section from the list above:
SMILES	mut p53 SMM	STAT3 binder	ID4 binder	Myc binder
CCC(Cc1c(I)cc(I)c(N)c1I)C(=O)O (stereo not drawn)	i	i	i	i
CC1(C)Oc2ccc(C#N)cc2[C@@H](N2CCCC2=O)[C@@H]1O	i	i	i	i

Pulled by structure from the entries so far (6):
SMILES	mut p53 SMM	STAT3 binder	ID4 binder	Myc binder
CCN(CC)CCOC(=O)C(c1ccccc1)c1ccccc1	i	i	.	i
CCC(Cc1c(I)cc(I)c(N)c1I)C(=O)O (stereo not drawn)	i	i	i	i
CN=C(NC#N)Nc1ccc(C2=NNC(=O)CC2C)cc1 (stereo not drawn)	i	i	i	i
COc1cc(-c2oc3cc(O)cc(O)c3c(=O)c2OC2OC(CO[C@@H]3O[C@@H](C)[C@H](O)[C@@H](O)[C@H]3O)C(O)C(O)C2O)ccc1O (stereo partly drawn)	i	i	i	i
COc1ccc([C@@H]2CNC(=O)C2)cc1OC1CCCC1	i	i	i	i
CC1(C)Oc2ccc(C#N)cc2[C@@H](N2CCCC2=O)[C@@H]1O	i	i	i	i
